Screens (PubChem BioAssay)
Sa helicase inh: inhibitors of S. aureus replicative helicase, primary screen, biochemical, fluorescence unwinding readout. inhibition, %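 (tested at about 80 µM)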. 120,000 tested, 0.05% active. purified S. aureus helicase, fluorescence unwinding assay; about half of the hits fall short of the stated cut;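 active means both duplicates at 50% or more, or one of them with a favoured structure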;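 further: 0% = mean of negative control wells and 100% = mean of positive control wells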
MgrA DNA FP: S. aureus MgrA activity modulators, primary screen, biochemical, S. aureus Newman, fluorescence polarization. inhibition, %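 (about 10 µg/mL by stock and volumes)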. MgrA-DNA binding. 84,000 tested, 0.13% active;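 active means above 50% in either of two replicates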;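 further: 0% = protein plus DNA without compound and 100% = DNA alone without protein; higher means less MgrA bound to DNA so lower polarization; one replicate is shown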
Starred values were filed as active, the others as inactive; / = not tested or not shown.

Molecule | Sa helicase inh | MgrA DNA FP
Cc1ccc2c(c1)c1c(n2CC(O)CNCc2ccco2)C(=O)CCC1 (stereo unspecified) | -19 | /
COC(=O)c1ccc(-c2ccc(Cl)cc2)s1 | / | 1.9
O=C(c1ccccc1F)N1CCC(Cc2ccccc2)CC1 | -4 | 2.1
Cc1cc(C(F)(F)F)nc(SCc2ccc(C(=O)O)o2)n1 | 13 | 0.8
CCOC(=O)c1ccc(NC(=O)COC(=O)c2cc3ccccc3o2)cc1 | 1 | /
C#CCn1c(O)c(N=NC(=O)c2cc(Cl)ccc2O)c2ccccc21 | -22 | /
CCOC(=O)N1CCC(N2CCc3c([nH]c4ccccc34)C2)CC1 | 9 | 2.4
COC(=O)Nc1cc(NC(=O)OC)cc(C(F)(F)C(F)(F)C(F)(F)F)c1 | 10 | -3.4
CC(=O)Nc1ccc(-n2c(C)csc2=NC(=O)c2ccccc2)cc1 | 14 | /
Cc1cnc(NC(=O)COc2ccccc2Cl)s1 | 11 | /
CCN(CC)S(=O)(=O)c1ccc(NC2c3ccccc3C(=O)N2Cc2ccco2)cc1 (stereo unspecified) | -30 | /
CC(C)NC(=O)NC1CCCCNC1=O (stereo unspecified) | / | -2.2

Molecule | Sa helicase inh | MgrA DNA FP
C=C(C)C(=O)Oc1ccc(N2Cc3ccccc3C2=O)cc1 | -18 | /
Cc1ccc2c(c1)N(CC(=O)OCC(=O)NCc1ccccc1)C(=O)CO2 | -4 | -1.9
CCOC(=O)CS(=O)c1nc2c(c(C(F)(F)F)n1)CCc1ccccc1-2 (stereo unspecified) | 6 | 0.9
COC(=O)c1sccc1OC(=O)c1ccc(C(C)(C)C)cc1 | / | -0.2
Cc1ccc(Cn2nc(C)c3cc(C(=O)O)sc32)cc1 | 0 | /
CCOc1ccc(C(=O)N2CCCCCC2)cc1 | 10 | 4.5
CC(C)CC(N)C(O)C(F)(F)F (stereo unspecified) | -5 | /
COc1c(C(=O)Nc2nnc(C3CC3)s2)csc1Cl | / | -1.1
CCn1c(CN2CCCCC2)nc2cc(S(=O)(=O)N(C)C)ccc21 | -3 | /
C=CCOc1ccccc1CN(C(=O)c1c(C)noc1C)c1ccc2c(c1)OCCO2 | 11 | /
CC(NC(=O)c1cccc(C(=O)NC(C)c2ccccc2)c1)c1ccccc1 (stereo unspecified) | 6 | -7.2
CCOC(=O)c1cc(C(=O)NC(C)c2ccccc2)c(C)[nH]c1=O (stereo unspecified) | 15 | -2.5

Molecule | Sa helicase inh | MgrA DNA FP
O=C(Nc1ccc(Br)cc1C(=O)O)c1ccc(N2C(=O)C3C4C=CC(C4)C3C2=O)cc1 (stereo unspecified) | / | 2.2
CCC1Oc2ccc(C)cc2N(CC(=O)N(Cc2ccc3c(c2)OCO3)CC2CCCO2)C1=O (stereo unspecified) | 7 | 4.0
c1ccc(Cc2[nH]nc3ccccc23)cc1 | 5 | -2.0
COc1cccc(CCN2CCC(CNS(=O)(=O)c3cc(-c4cc(C)no4)ccc3OC)CC2)c1 | 11 | /
NCc1cc2ccccc2s1 | 9 | /
NC(=O)CCN1CCC(c2nc3ccccc3s2)CC1 | -16 | /
COc1ccc(C2=NNC(=NC3CCCCC3)SC2)cc1 | 7 | /
CC(=O)Nc1cccc(NC(=O)Cn2nc(-c3ccco3)ccc2=O)c1 | 6 | /
CC/C(Cc1ccccc1)=N\NC(=O)c1ccc(N)cc1 | 2 | -0.7
CNCC(O)COC1CCCCC1 (stereo unspecified) | 8 | 1.1
Clc1ccc(Sc2c(-c3ccc(Br)cc3)nc3ccccn23)cc1 | / | 2.6
Cc1ccc(/C=C2\SC(=S)N(CCC(=O)Nc3c(C)n(C)n(-c4ccccc4)c3=O)C2=O)cc1 | / | -1.7

Part of the list above, as labelled records.
> CCC1Oc2ccc(C)cc2N(CC(=O)N(Cc2ccc3c(c2)OCO3)CC2CCCO2)C1=O (stereo unspecified)
  Sa helicase inh = 7; MgrA DNA FP = 4.0
> c1ccc(Cc2[nH]nc3ccccc23)cc1
  Sa helicase inh = 5; MgrA DNA FP = -2.0

A portion taken from the entries so far, as a working copy:
Molecule | Sa helicase inh | MgrA DNA FP
O=C(Nc1ccc(Br)cc1C(=O)O)c1ccc(N2C(=O)C3C4C=CC(C4)C3C2=O)cc1 (stereo unspecified) | / | 2.2
CCC1Oc2ccc(C)cc2N(CC(=O)N(Cc2ccc3c(c2)OCO3)CC2CCCO2)C1=O (stereo unspecified) | 7 | 4.0
c1ccc(Cc2[nH]nc3ccccc23)cc1 | 5 | -2.0
COc1cccc(CCN2CCC(CNS(=O)(=O)c3cc(-c4cc(C)no4)ccc3OC)CC2)c1 | 11 | /
NCc1cc2ccccc2s1 | 9 | /
NC(=O)CCN1CCC(c2nc3ccccc3s2)CC1 | -16 | /
COc1ccc(C2=NNC(=NC3CCCCC3)SC2)cc1 | 7 | /

Going on with the list:
Molecule | Sa helicase inh | MgrA DNA FP
CC(=O)Oc1cccc(-c2nc3ccccc3c(=O)o2)c1 | 7 | /
OCCSc1nc(-c2cccnc2)nc2ccccc12 | -2 | /
CCC(C)(C)c1nnc(N)s1 | -1 | 6.6
O=C(COC(=O)/C=C/c1ccc(F)cc1)Nc1ccc(Cl)cn1 | -9 | /
CC(C)CN(CC(C)C)C(=O)CSc1nn2c(=O)c(C(C)(C)C)nnc2s1 | 0 | /
CCOC(=O)c1cc(-c2ccccc2)sc1NC(=O)CN1CCCCC1 | / | -1.5
O=C(O)CC1(CC(=O)Nc2ccc3c(c2)C(=O)OC3)CCCCC1 | / | -3.5
CS(=O)(=O)N1CCN(c2cccc(C(F)(F)F)c2)CC1 | 4 | 3.5
COc1ccccc1N1CCN(c2ncnc3c2cnn3-c2ccc(C)c(Cl)c2)CC1 | 8 | /
O=C(O)C12CC3CCC(CC(C3)C1)C2 | -42 | /
O=C(Nc1ccc2ccccc2n1)C1CCN(c2nccc(C(F)(F)F)n2)CC1 | 6 | /
Cc1ccc2c(c1)c1c(n2CC(O)CN2C(=O)CNC2=O)C(=O)CCC1 (stereo unspecified) | -6 | -0.8

Molecule | Sa helicase inh | MgrA DNA FP
Cc1cc(C)nc(NC=C2C(=O)OC(C)(C)OC2=O)n1 | / | -0.4
O=C(CN1C(=O)CSc2ncccc21)N1CCN(c2ccccc2)CC1 | 14 | /
CCc1ccc(CN(Cc2cn[nH]c2-c2ccc(OC)cc2)C(=O)NCc2ccc(C)cc2)cc1 | 3 | 1.1
Cc1oc2c3c(ccc2c(=O)c1-c1ccc(F)cc1)OCO3 | 10 | /
O=C1CCCC2=C1C(c1ccc3c(c1)OCO3)c1c([nH]c(=O)[nH]c1=O)N2 (stereo unspecified) | 5 | -1.2
S=C1NC2(CCS1)Oc1ccccc1C1CC(c3ccccc3)=NN12 (stereo unspecified) | -22 | -6.0
CC(=O)Oc1ccc(-c2ccc(C(=O)Nc3ccccn3)cc2)cc1 | -19 | /
COc1ccc(CN2CCN(c3cccc(C(F)(F)F)c3)CC2)cc1C | / | -1.6
Cc1sc(N)nc1-c1cccs1 | -8 | 3.9
O=c1cc(C(F)(F)F)nc(-c2ccccn2)[nH]1 | / | -2.8
Cc1nn2c(nc(N3CCCC3)c3ccccc32)c1C=C1C(=O)N(C)C(=O)N(C)C1=O | -8 | /
Cc1cc(C)cc(NC(=O)COC(=O)c2ccc(S(=O)(=O)N3CCOCC3)cc2)c1 | -8 | /

Molecule | Sa helicase inh | MgrA DNA FP
Cc1ccc(S(=O)(=O)CCN(C)Cc2cccnc2)cc1 | / | 0.0
O=C1N/C(=N/c2ccccn2)SC1Cc1cccc(Cl)c1 (stereo unspecified) | / | -1.4
COc1ccc2nc3oc(C(=O)NCCC4=CCCCC4)cc3cc2c1 | 16 | 0.3
O=C(Nc1nc2c(s1)Cc1ccccc1-2)c1ccc([N+](=O)[O-])cc1 | / | 1.6
CCOC(=O)N1CCN(C(=O)CC2c3ccccc3Oc3ccccc32)CC1 | 6 | 1.2
CCCCOc1cc(C(N)=O)ccc1OC | / | 0.3
COc1ccc(C2C3=C(CCCC3=O)Nc3ncnn32)cc1 (stereo unspecified) | -15 | /
CSc1nnc(CNC(=O)Cc2ccccc2)n1-c1ccc(F)cc1 | -5 | /
CCCCn1c(=O)c(C(=O)N/N=C/c2cccnc2)c(O)c2ccccc21 | 5 | /
NS(=O)(=O)c1ccc(-c2cc(C(F)(F)F)ccn2)s1 | / | -3.1
N#Cc1c(C(F)(F)F)cc(-c2ccc(Cl)cc2)nc1SCC(=O)O | -2 | /
CCOc1cc(/C=C2\SC(=O)N(Cc3ccc(F)cc3)C2=O)ccc1O | -21 | -2.5

Molecule | Sa helicase inh | MgrA DNA FP
O=S(=O)(Nc1ccccn1)c1ccc(-n2cccn2)cc1 | 18 | /
Cc1onc(-c2ccccc2Cl)c1C(=O)NCCNc1ccc(C(F)(F)F)cc1[N+](=O)[O-] | / | -3.2
CC(/C=C(\C#N)S(=O)(=O)c1ccccc1)c1ccccc1 (stereo unspecified) | -10 | /
CCOc1ccccc1N1CCN(Cc2cnc(-c3ccccc3)[nH]2)CC1 | / | -2.1
O=C(c1ccccc1)c1nccc2ccccc12 | 23 | 3.3
O=S(=O)(c1ccc(-c2cnco2)cc1)N1CCN(C2c3ccccc3-c3ccccc32)CC1 | 19 | /
COc1ccc(NC(=O)c2ccc(NC(=O)CN(C)C3CCN(C)CC3)cc2)cc1 | 9 | /
CCN1CCN(C(c2cccs2)C(C)NC(=O)c2ccc3c(c2)OCO3)CC1 (stereo unspecified) | -5 | /
COC(=O)COc1ccc(-c2nn(C)c(=O)c3ccccc23)cc1 | 13 | /
O=C(Nc1ccccc1C(=O)O)c1ccc(N2C(=O)c3cccc4c([N+](=O)[O-])ccc(c34)C2=O)cc1 | / | 3.1
CC(C)(CC(=O)O)CC(=O)Nc1ccc(C#N)cc1 | / | -4.0
Nc1nccc(-c2cccc(Cl)c2F)n1 | / | -1.5

Molecule | Sa helicase inh | MgrA DNA FP
CC1CCCC(NC(=O)NC(=O)COc2ccccc2C(N)=O)C1C (stereo unspecified) | 0 | /
O=C(NCCN1CCCC1)c1cc2ccc3cccnc3c2[nH]1 | -39 | /
COC(=O)C(Cc1ccccc1)NC(=O)C12CC3CC(CC(C3)C1)C2 (stereo unspecified) | -2 | -2.4
COC(=O)c1cc(COC(=O)/C=C/c2c(C)nn(-c3ccccc3)c2C)oc1C | -12 | /
O=C(NCc1ccc2c(c1)OCO2)c1ccc2c(=O)n(Cc3ccccc3)c(=S)[nH]c2c1 | 6 | 0.6
Nc1ccc(-n2cnnc2)cc1 | 2 | -6.8
Cc1nn(-c2ccccc2)c(C)c1CN(C)C(=O)C1COc2ccccc2O1 (stereo unspecified) | 9 | /
CC(C)c1nccn1C(=O)c1ccccc1C(=O)O | 2 | /
CC1CCCCC1NC(=S)NN (stereo unspecified) | -14 | /
O=C(CCC(=O)c1ccc(Cl)s1)NC1CCCC1 | -4 | /
CNC(=O)c1c(NC(=O)CS(=O)(=O)c2ccc(F)cc2)sc(C)c1C | 1 | /
COc1ccc2cc3c(N)nn(C(=O)CCS(=O)(=O)c4ccccc4)c3nc2c1 | 5 | /

Molecule | Sa helicase inh | MgrA DNA FP
CN(Cc1ccccc1)C(=O)CN(C)S(=O)(=O)c1ccc2[nH]c3c(c2c1)CCCC3 | -5 | -0.6
O=C(COC(=O)c1ccc2c(c1)OCO2)NC12CC3CC(CC(C3)C1)C2 | 6 | /
NC(=O)C1CCCN(C(=O)Nc2cccc(C(F)(F)F)c2)C1 (stereo unspecified) | 5 | -0.8
COc1ccc(CC(=O)Nc2cc3[nH]c(=O)[nH]c3cc2C)cc1OC | 0 | /
CCc1ccc(NC(=O)c2cc(C(C)C)on2)cc1 | -20 | /
COc1ccc(CCC(=O)OCN2C(=O)c3ccccc3C2=O)cc1 | -2 | /
COC(=O)C1C(=O)CC(=O)CC1(C)C (stereo unspecified) | / | -2.2
Cn1ccnc1P(=O)(O)c1ccccc1 | 12 | /
Cc1cn(-c2ccc(Br)cc2)[nH]c1=O | 7 | /
CC(C)(C)SCCNc1nc(Oc2ccc(F)cc2)nc(Oc2ccc(F)cc2)n1 | / | 4.8
Cc1c(N=C=S)c(=O)n(-c2ccccc2)n1C | -6 | /
NC(=O)c1c(NC(=O)CN2C(=O)S/C(=C\c3ccccc3Cl)C2=O)sc2c1CCCC2 | / | 3.1

Molecule | Sa helicase inh | MgrA DNA FP
CCCN1C(=O)CC(c2ccccc2)Sc2ccccc21 (stereo unspecified) | -16 | /
Cc1ccc2nc(SCC(=O)N3CC4(C)CC3CC(C)(C)C4)[nH]c2c1 (stereo unspecified) | -7 | -0.8
CCOC(=O)CSc1nc2ccccc2n1Cc1ccccc1 | 6 | 1.4
Cc1[nH]c2ccccc2c1SCC(=O)Nc1ccccc1 | 23 | /
Cc1ccc(S(=O)(=O)CCC(=O)N(Cc2nnc(-c3ccc(Cl)cc3)o2)C2CC2)cc1 | -6 | /
COc1ncnc2sc3c(c12)CCC3 | 10 | /
CC(=O)N1CCN(c2ccc(Oc3nc(-c4ccccc4)nc4ccccc34)cc2)CC1 | -10 | /
Cn1c(=O)[nH]c(=O)c2c1nc1n2CCCN1c1ccccc1 | 0 | 1.1
O=C(NCc1ccco1)C12CC3CC(CC(C3)C1)C2 | 8 | -0.5
COc1ccc(N=C2SC(C(=O)Nc3ccccc3)CC(=O)N2C)cc1 (stereo unspecified) | 18 | -1.6
O=S(=O)(/C=C/c1ccccc1)N1CCN(CCc2ccncc2)CC1 | -9 | /
CCC(C)(C)NS(=O)(=O)c1ccc(Cl)cc1F | -1 | /
COC(=O)c1cc(C2CC2)nc2c1c(C)nn2-c1ccccc1 | 20 | /
Cc1cc(C)n(-c2ccc(C(=O)OCc3nc4ccccc4c(=O)n3CC#N)cc2)n1 | 8 | /

Only part of the results is shown; rates above refer to the full screens.
